Screens as filed in PubChem.
GIRK2 activ = activators of human GIRK2 potassium channels. HEK293-GIRK2 thallium flux, Thallos fluorescence. calls only for hits at 25 µM. 63,000 compounds, 0.05% hits. AID 1259325;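 active means among the strongest 0.2% of first-round signals and kept after retests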;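 further: first round at about 10 µM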
Target sequence (P48051 whole entry, looked up): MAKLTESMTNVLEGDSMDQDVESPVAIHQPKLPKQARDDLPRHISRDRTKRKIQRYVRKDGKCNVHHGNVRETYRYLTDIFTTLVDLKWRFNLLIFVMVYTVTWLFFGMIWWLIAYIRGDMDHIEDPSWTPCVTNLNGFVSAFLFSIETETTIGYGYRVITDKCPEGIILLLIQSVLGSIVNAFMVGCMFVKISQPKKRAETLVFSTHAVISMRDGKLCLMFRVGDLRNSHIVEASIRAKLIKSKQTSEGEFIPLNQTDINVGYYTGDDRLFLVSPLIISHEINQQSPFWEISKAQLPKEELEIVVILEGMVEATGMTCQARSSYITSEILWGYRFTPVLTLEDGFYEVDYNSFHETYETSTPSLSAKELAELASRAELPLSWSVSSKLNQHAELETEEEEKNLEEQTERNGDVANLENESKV
Calls only; i = inactive. Only part of the results is shown; the hit share may differ from the screen's.

SMILES | GIRK2 activ
O=C(CCc1csc(NC(=O)c2ccc[nH]c2=O)n1)Nc1ccc(F)c(Cl)c1 | i
Cn1c(=O)c2c(nc(Nc3ccccc3)n2CC(=O)O)n(C)c1=O | i
O=C(NCCc1ccoc1)c1ccco1 | i
Cc1cccc(S(=O)(=O)NCCCn2ncccc2=O)c1 | i
CCN1C(=O)C2C(c3ccc(O)c(OC)c3)NN(Cc3ccccc3)C2C1=O (configuration not stated) | i
Cc1ccc(F)cc1S(=O)(=O)N1CCN(c2nc(N3CCOCC3)nc(-n3ccnc3)n2)CC1 | i
Cn1nc(C(=O)N2CCN(CC(O)c3ccco3)CC2)ccc1=O (configuration not stated) | i
CCCOc1ccc(-c2nc(C#N)c(N3CCN(C(=O)c4cccs4)CC3)o2)cc1 | i
COc1cccc(NC(=O)Cn2nc3c(Sc4ccccc4)nccn3c2=O)c1 | i
O=C(/C=C/c1ccccc1)NCCNc1ccc(-n2cccc2)nn1 | i
CN(C)C(CNC(=O)C1c2ccccc2Oc2ccccc21)c1cccn1C (configuration not stated) | i
CNC(=O)C1Cc2ccccc2N1C(=O)CCc1ccc(OC)cc1 (configuration not stated) | i
O=C(Nc1nc(CC(=O)N2CCn3c2nc2ccccc23)cs1)c1ccc(=O)[nH]c1 | i
O=C(Cn1nnc2ccccc21)Nc1cc(N2CCN(c3ccccc3)CC2)ncn1 | i
O=C(c1cc(C2CC2)on1)N1CCN(CCn2cccn2)CC1 | i
COc1ccc(NC(=O)C(=O)NCCCN2CCOCC2)cc1OC | i
COc1ccccc1-c1coc2cc(OCc3ccc([N+](=O)[O-])cc3)ccc2c1=O | i
O=C(CCS(=O)(=O)c1ccccc1)NCC1CCN(c2cnccn2)CC1 | i
Cc1ccc(CNC(=O)c2c(O)c3sccc3[nH]c2=O)cc1 | i
CCOCCn1c(-n2nc(C)cc2C)nc2c1c(=O)n(CC)c(=O)n2C | i
Cc1noc(-c2cc(=O)n(CC(=O)Nc3cccc(C)c3C)c3ccccc23)n1 | i
CC1=C(C(=O)OC(C)C)C(c2ccccc2F)NC(=O)N1C (configuration not stated) | i
COc1ccc(OCc2ccc(-c3nc(C#N)c(NCc4ccccc4)o3)o2)cc1 | i
COc1ccc(/C=C/C(=O)Nc2cc(N3CCN(c4ccccc4)CC3)ncn2)cc1OC | i
CCCCCn1c(SCC(=O)C(C)(C)C)nc2cc(C(=O)N3CCCC3)ccc2c1=O | i
CCCc1nnsc1C(=O)N1CCC(Cn2c(C(F)(F)F)nc3ccccc32)CC1 | i
O=C(CN1C(=O)CCC1=O)N1CCC(Oc2cnccn2)CC1 | i
Cc1ccnc(Nc2cc(NCCNC(=O)COc3ccccc3)ncn2)c1 | i
O=C(COc1ccc2c(c1)C(=O)CC2)Nc1cccc(C(F)(F)F)c1 | i
COc1ccc(-c2c(NC(=O)c3ccco3)oc3c(sc4ccccc43)c2=O)cc1 | i
Cc1ccccc1Cn1c(=O)c2c(nc3oc(-c4ccc(F)cc4)cn32)n(C)c1=O | i
COCCNC(=O)NCC1CCN(C)CC1 | i
C=C(C)COc1ccc2c(c1)O/C(=C\c1cccc(OC)c1OC)C2=O | i
O=C(Cn1nc(-c2ccccc2)c2sc(N3CCCC3)nc2c1=O)Nc1ccc(C(F)(F)F)cc1 | i
CSc1cccc(NC(=O)Cc2cc(=O)[nH]c(SCc3ccccc3)n2)c1 | i
CC(C)CNC(=O)c1nnn(-c2ccc(Cl)cc2)n1 | i
CN(C)C(CNC(=O)c1c(F)cccc1Cl)c1ccc2c(c1)CCO2 (configuration not stated) | i
O=c1ccc(-c2nc(-c3ccc(F)cc3)no2)cn1Cc1cccc(Cl)c1 | i
CSC1=C(C#N)C(c2cc(Br)c(O)c(Br)c2)CC(=O)N1 (configuration not stated) | i
Cc1cccc(C(=O)N(CCn2cccn2)c2nc3c(Cl)cccc3s2)c1 | i
COc1cccc(-n2ncc3c(N/N=C\c4ccncc4)ncnc32)c1 | i
Cn1c(C(F)(F)F)nn(CCNC(=O)c2ccc3nsnc3c2)c1=O | i
C=C[C@H]1[C@H](O[C@@H]2O[C@H](CO)[C@@H](O)[C@H](O)[C@H]2O)OC=C2C(=O)OCC[C@]21O | i
Cn1nc(-c2ccc(F)cc2)cc1C(=O)NCC1CCN(S(=O)(=O)C2CC2)CC1 | i
O=C(Cn1cccc(-c2nc(-c3ccc(F)cc3)no2)c1=O)NCC1CCCO1 (configuration not stated) | i
Cc1ccc(Cl)cc1NC(=O)c1ccc(-n2cccn2)nn1 | i
O=C(Cc1cccs1)NC1CCN(c2ccc(-c3ccccc3Cl)nn2)CC1 | i
CNC(=O)CSc1nnc(N2CCN(C(=O)c3cc(=O)c4ccccc4o3)CC2)s1 | i
O=C(NCCN1CCN(c2ccc(Cl)cc2)CC1)C(=O)NCc1ccccc1Cl | i
COc1ccc(CNC(=O)c2n[nH]nc2Nc2ccc(Cl)cc2)cc1 | i
The results go on.
SMILES | GIRK2 activ
Nc1nc(SCC(=O)c2ccc(-c3ccccc3)cc2)n[nH]1 | i
Cc1cc(C)n(-c2cc(SCC(=O)Nc3ccc(Cl)cc3F)ncn2)n1 | i
COCCCN1CN(S(=O)(=O)c2ccc(OC)cc2)c2nc3ccccc3nc21 | i
O=C(Nc1nnc(-c2ccccc2)o1)Nc1cccs1 | i
COc1ccc(C2CC3C4NN=C(SCC(=O)Nc5c(C)cc(C)cc5C)N4C=CN3N2)cc1 (configuration not stated) | i
N#Cc1ccc(Cn2cccc2-c2nc(-c3ccc(Cl)cc3)no2)cc1 | i
CCOC(=O)c1ccc(Nc2nn3c(=O)c4cc(Cl)ccc4nc3s2)cc1 | i
COc1ccc(CCN=C2NC(=O)/C(=C/c3ccc4ncccc4c3)S2)cc1 | i
O=C(NCCc1ccccc1)NCC1CCN(Cc2cccs2)CC1 | i
COc1ccccc1CNS(=O)(=O)c1cc2c3c(c1)CCN3C(=O)CC2 | i
CC(C)OC(=O)CCC/C=C\C[C@@H]1[C@@H](CC[C@@H](O)CCc2ccccc2)[C@H](O)C[C@@H]1O | i
COc1cccc(C2c3c(oc4ccccc4c3=O)C(=O)N2C)c1OC (configuration not stated) | i
O=C(Cn1c(=O)oc2ccccc21)NCC1CCS(=O)(=O)C1 (configuration not stated) | i
O=C(c1ccc(F)cc1)N1CCN(S(=O)(=O)c2cc3c4c(c2)CCC(=O)N4CCC3)CC1 | i
O=C(/C=C\c1cccs1)N1CCN(c2cc(-c3ccccc3)ncn2)CC1 | i
Cc1ccc(NC(=O)Cn2c(=O)n(Cc3ccc(F)cc3)c(=O)c3nccnc32)c(C)c1 | i
O=C(NCC1CCS(=O)(=O)C1)c1nc2ccccc2s1 (configuration not stated) | i
COc1ccc(-n2nnc3c(N4CCN(C(=O)c5ccc(C(C)(C)C)cc5)CC4)ncnc32)cc1 | i
CC(C)(C)OC(=O)Cn1cnc2c(-c3ccc(Br)cc3)csc2c1=O | i
CCCCNC(=O)NS(=O)(=O)c1ccc(CO)cc1 | i
Cc1ccc(-n2ncc3c(C)nnc(SCC(=O)NCc4ccccc4)c32)cc1C | i
O=C1CCCN1c1ccc(Cn2nc3c(S(=O)(=O)N4CCOCC4)cccn3c2=O)cc1 | i
CC(NC(=O)C1CCN(c2ncccc2-c2nc(-c3ccccc3)no2)CC1)c1ccc(F)cc1 (configuration not stated) | i
O=C(Nc1cc(F)cc(F)c1)N1CCN(c2cc(-n3cccc3)ncn2)CC1 | i
O=c1c(-c2ccccc2)coc2c3c(ccc12)OCN(C1CCN(Cc2ccccc2)CC1)C3 | i
COc1ccc(OCCS(=O)(=O)Nc2nc3ccccc3[nH]2)cc1 | i
N#Cc1ccc(OC2CCN(C(=O)c3ccc(Br)o3)CC2)nc1 | i
CC1(C)OCC2(CO1)CN(C(=O)/C=C/c1cccs1)C2 | i
CC(=O)c1ccc(N2CCN(C(=O)c3ccc(Oc4nccnc4N4CCC(C)CC4)cc3)CC2)cc1 | i
COCCN1CCC(NC(=O)c2cc3cccc(OC)c3o2)CC1 | i
O=C(Cn1nc(-c2ccco2)c2sc(N3CCCC3)nc2c1=O)N1CCN(c2ccccc2)CC1 | i
COC(=O)c1ccc(NC(=O)Cn2c(=O)n(CCCCC(=O)NC(C)C)c(=O)c3ccccc32)cc1 | i
Cn1c(=O)c2cc(C(=O)N3CCC(C(N)=O)CC3)n(Cc3ccccc3)c2n(C)c1=O | i
CCCc1noc(-c2ccnc(SCC(=O)Nc3ccc4c(c3)OCCO4)c2)n1 | i
Cc1ccc(N2CCN(S(=O)(=O)c3ccc(C4CCCCC4)cc3)CC2)c(C)c1 | i
COc1nn(C)cc1C(=O)N1CCC(c2nnc(C3CC3)o2)CC1 | i
CCc1ccc(-n2ncc3c(=O)n(Cc4nc(-c5cc(OC)c(OC)c(OC)c5)no4)cnc32)cc1 | i
CC(Cc1ccco1)NC(=O)c1cccs1 (configuration not stated) | i
COc1ccc(SCC2CCN(S(=O)(=O)c3cc(F)ccc3OC)CC2)cc1 | i
Cc1cccc(N2CCN(C(=O)CN(C)c3nc4c(F)cccc4s3)CC2)c1 | i
Cc1ccc(S(=O)(=O)N2CCCC(c3nnc(CC(C)(C)C)o3)C2)cc1C (configuration not stated) | i
COc1ccc2nc(-n3nc(C)cc3NC(=O)COc3ccccc3OC)sc2c1 | i
CCCCNC(=O)c1ccc(-n2ccnc2SCC(=O)Nc2cc(Cl)ccc2OC)cc1 | i
N#C/C(=C\Nc1ccc2c(c1)OCO2)c1nc(-c2ccco2)cs1 | i
CCCCN1CC(c2nc3ccccc3n2Cc2cc(C)ccc2C)CC1=O (configuration not stated) | i
O=C(NCC(O)c1ccc2c(c1)CCO2)C(=O)NCC(F)(F)F (configuration not stated) | i
CC(NC(=O)C1CCN(c2ncccc2-c2nc(-c3cccc(F)c3)no2)CC1)c1ccccc1 (configuration not stated) | i
Cc1cc(C(=O)Nc2sc3c(c2C(N)=O)CCC(C)C3)on1 (configuration not stated) | i
CCCN(CCC)S(=O)(=O)c1cc(OC)c(Br)cc1OC | i
O=S(=O)(CCC1=NS(=O)(=O)c2cc(S(=O)(=O)N3CCCCC3)ccc2N1)c1ccccc1 | i
Next results
SMILES | GIRK2 activ
CCOc1ccc(S(=O)(=O)NCC2CCN(S(=O)(=O)c3cccnc3)CC2)cc1 | i
O=C(c1cccc(C(F)(F)F)c1)N1CCC2(CC1)OCCCO2 | i
Cc1ccc(-c2ccc(S(=O)(=O)N3CCCC3)cc2)cc1 | i
Cc1ccc(C)c(S(=O)(=O)NCc2ccc(C(=O)N3CCCCC3C)cc2)c1 (configuration not stated) | i
O=C(C1CC(=O)N(c2cccc(Br)c2)C1)N1CCN(CCn2ccnc2)CC1 (configuration not stated) | i
CC(C)CC(=O)OC1c2c(ccc3ccc(=O)oc23)OC1C(C)(C)OC(=O)CC(C)C (configuration not stated) | i
O=C(CSc1nnc2ccccn12)N1CCC(c2noc3ccc(F)cc23)CC1 | i
O=C(Cc1cccs1)N1CCC(Oc2nc3ccc(F)cc3s2)CC1 | i
CN(C(=O)Cn1nc(-c2ccco2)c2sc(N3CCCC3)nc2c1=O)c1ccccc1 | i
COc1ccccc1N1CCN(CCNC(=O)COc2ccccc2C)CC1 | i
Cc1cn2c3c(=O)n(C/C=C/c4ccccc4)c(=O)n(C)c3nc2n1CCCO | i
O=c1[nH]c2nc(NC3CC3)ncc2c(=O)n1C1CCCC1 | i
O=C(COc1ccc(Cl)cc1)Nc1ccc(N2CCCCS2(=O)=O)cc1 | i
O=C(c1cnccn1)N1CCN(Cc2csc(-c3ccccc3)n2)CC1 | i
CCN1CCc2ncnc(SCC(=O)Nc3ccc(Br)cc3)c2C1 | i
O=S(=O)(c1ccc2nc(N3CCN(c4ccccc4F)CC3)cnc2c1)N1CCCCC1 | i
O=C(Cc1csc(NC(=O)c2ccc(=O)[nH]c2)n1)Nc1nc2c(s1)CCCC2 | i
CCOC(=O)c1ccc(Nc2nn3c(=O)c4ccc(F)cc4nc3s2)cc1 | i
COc1ccc(C(=O)Nc2nnc(-c3ccc(SC)cc3)o2)cc1OC | i
CCOC(=O)c1c(NC(=O)COc2cccc3c2CCN(Cc2ccccc2F)C3=O)sc2c1CCC2 | i
CC(=O)N1CCc2c(sc(NC(=O)c3ccc(C)c(C)c3)c2-c2nc3ccccc3s2)C1 | i
COc1ccc(S(=O)(=O)Nc2cccc(N3CCCCC3=O)c2)cc1 | i
O=C(C1=C(O)C(=O)N(CCCN2CCOCC2)C1c1ccco1)c1cc2ccccc2o1 (configuration not stated) | i
O=C(c1ccsc1)N1C2CCC1COC2 | i
CNC(=O)CCNS(=O)(=O)c1cc(N(C)S(C)(=O)=O)c(C)cc1C | i

Among those listed so far, these contain a thiophene ring, fused or not:
SMILES | GIRK2 activ
CCCOc1ccc(-c2nc(C#N)c(N3CCN(C(=O)c4cccs4)CC3)o2)cc1 | i
Cc1ccc(CNC(=O)c2c(O)c3sccc3[nH]c2=O)cc1 | i
COc1ccc(-c2c(NC(=O)c3ccco3)oc3c(sc4ccccc43)c2=O)cc1 | i
O=C(Cc1cccs1)NC1CCN(c2ccc(-c3ccccc3Cl)nn2)CC1 | i
O=C(Nc1nnc(-c2ccccc2)o1)Nc1cccs1 | i
O=C(NCCc1ccccc1)NCC1CCN(Cc2cccs2)CC1 | i
O=C(/C=C\c1cccs1)N1CCN(c2cc(-c3ccccc3)ncn2)CC1 | i
CC(C)(C)OC(=O)Cn1cnc2c(-c3ccc(Br)cc3)csc2c1=O | i
CC1(C)OCC2(CO1)CN(C(=O)/C=C/c1cccs1)C2 | i
CC(Cc1ccco1)NC(=O)c1cccs1 (configuration not stated) | i
Cc1cc(C(=O)Nc2sc3c(c2C(N)=O)CCC(C)C3)on1 (configuration not stated) | i
O=C(Cc1cccs1)N1CCC(Oc2nc3ccc(F)cc3s2)CC1 | i
CCOC(=O)c1c(NC(=O)COc2cccc3c2CCN(Cc2ccccc2F)C3=O)sc2c1CCC2 | i
CC(=O)N1CCc2c(sc(NC(=O)c3ccc(C)c(C)c3)c2-c2nc3ccccc3s2)C1 | i
O=C(c1ccsc1)N1C2CCC1COC2 | i
